Assay outcomes: PubChem BioAssay, Fisher Drug Discovery Resource Center
NPYLR7 ag = agonists of mosquito NPYLR7 receptor, primary screen, cell-based, Aedes aegypti, calcium fluorescence, mosquito biting behavior. Aedes aegypti neuropeptide Y-like receptor 7 (NPYLR7). HEK293T NPYLR7/Galpha15, GCaMP6s calcium fluorescence. activation, % at 10 µM. actives 0.15% (n = 270,000); in the data active = activation above about 40%;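 note: 0% = vehicle and 100% = reference agonist at the receptor; some compounds past the cut are filed as inactive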
NPYLR7 ag max-min = also measured in NPYLR7 ag; calls as there; activation, %; measured here: Max-Min RFU normalised activation; some inactives read as strong as hits;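 span of the calcium signal over five minutes; 0% = vehicle and 100% = native peptide agonist; compound fluorescence can raise it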
Active calls of the source: *; & = joins results of further samples. These rows are one share of the data. The share of hits here may be higher or lower than overall.

Cc1ccc(-c2csc(-n3[nH]c(C)c(N=Nc4ccc(C(=O)c5ccccc5)cc4)c3=O)n2)cc1
  NPYLR7 ag = 10 | NPYLR7 ag max-min = 12
COc1ccc(C(=O)OCCN(C)C2=NS(=O)(=O)c3ccccc32)c(OC)c1
  NPYLR7 ag = -8 | NPYLR7 ag max-min = -7
O=C(CC1CCCC1)NCc1cc(-c2ccc(F)cc2)on1
  NPYLR7 ag = 3 | NPYLR7 ag max-min = 0
CC(C)C(Oc1ccccc1Br)C(=O)O (stereo unspecified)
  NPYLR7 ag = 6 | NPYLR7 ag max-min = 2
CCC1(CC)CN(C(=O)c2nnc(COC)o2)CCO1
  NPYLR7 ag = 11 | NPYLR7 ag max-min = 7
C=c1c(C#N)c2[nH]c(N)c(C#N)c(C)c-2/c1=C\c1cccnc1
  NPYLR7 ag = 7 | NPYLR7 ag max-min = 6
COc1ccc(N2C(=O)CC(N3CCCCC3)C2=O)cc1 (stereo unspecified)
  NPYLR7 ag = -8 | NPYLR7 ag max-min = -10
O=C(NCC(c1cccs1)N1CCOCC1)c1ccccc1Br (stereo unspecified)
  NPYLR7 ag = 17 | NPYLR7 ag max-min = 9
O=C(Cn1nc2c(c1NC(=O)c1cccc3ccccc13)CSC2)NCc1ccccc1
  NPYLR7 ag = -3 | NPYLR7 ag max-min = 0
CC1CN(C(=O)C2(S(C)(=O)=O)CCCC2)CC1N(C)C (stereo unspecified)
  NPYLR7 ag = 3 | NPYLR7 ag max-min = 0

CN1CCN(C(=O)N2c3ccccc3CCc3ccccc32)CC1
  NPYLR7 ag = 0 | NPYLR7 ag max-min = -7
CC(=O)N1Cc2ccccc2C[C@H]1C(=O)NCc1ccc(N2CCCCCC2)nc1
  NPYLR7 ag = 1 | NPYLR7 ag max-min = 6
O=C(c1cc(-c2ccco2)nn1-c1ccccc1Cl)N1CCN(c2ccc([N+](=O)[O-])cc2)CC1
  NPYLR7 ag = 0 | NPYLR7 ag max-min = 13
COC(=O)c1cc(-c2ccc(F)cc2F)on1
  NPYLR7 ag = -4 | NPYLR7 ag max-min = -3
Cc1ccc(Cl)c(OC2CC3CCC(C2)N3C(=O)c2ccc(CSc3nccs3)cc2)c1 (stereo unspecified)
  NPYLR7 ag = 2 | NPYLR7 ag max-min = -3
O=C1CN(C(=O)CN2CC3(CCCC3)c3cc(Br)ccc32)CCN1
  NPYLR7 ag = 5 | NPYLR7 ag max-min = 2
Cc1nc2c(C#N)cnn2c(C)c1CCC(=O)NC1(C)CCC(C)CC1 (stereo unspecified)
  NPYLR7 ag = -28 | NPYLR7 ag max-min = -27
O=C(Nc1ccccc1)c1cc(=O)c(OCc2ccccc2)c[nH]1
  NPYLR7 ag = 0 | NPYLR7 ag max-min = -4
O=C(c1cccc2ccnn12)N1C[C@@H]2[C@H](C1)[C@H]1CC[C@@H]2O1
  NPYLR7 ag = 15 | NPYLR7 ag max-min = 8
O=c1c2cc3c(=O)n(Cc4cccnc4)ccc3nc2ccn1CCN1CCOCC1
  NPYLR7 ag = 3 | NPYLR7 ag max-min = 6

Shown tab-delimited: entries from further up.
mol	NPYLR7 ag	NPYLR7 ag max-min
O=c1c2cc3c(=O)n(Cc4cccnc4)ccc3nc2ccn1CCN1CCOCC1	3	6
Cc1nc2c(C#N)cnn2c(C)c1CCC(=O)NC1(C)CCC(C)CC1 (stereo unspecified)	-28	-27
COC(=O)c1cc(-c2ccc(F)cc2F)on1	-4	-3
CN1CCN(C(=O)N2c3ccccc3CCc3ccccc32)CC1	0	-7
O=C1CN(C(=O)CN2CC3(CCCC3)c3cc(Br)ccc32)CCN1	5	2

Other compounds follow:
OC(CN1CCc2ccccc2C1)Cn1c2c(c3ccccc31)CCCC2 (stereo unspecified)
  NPYLR7 ag = 4 | NPYLR7 ag max-min = 2
O=C(NC1CCCN(CCc2ccccc2)C1)C1=CCCC1 (stereo unspecified)
  NPYLR7 ag = 8 | NPYLR7 ag max-min = 4
Cc1ccccc1C(=O)N(CCCN(C)C)c1nc2ccc(F)cc2s1
  NPYLR7 ag = 2 | NPYLR7 ag max-min = 0
CCc1cccc(NC(=O)N2CCN3CCN(C)CC3C2)c1 (stereo unspecified)
  NPYLR7 ag = -4 | NPYLR7 ag max-min = -4
O=C(Cc1cccc(F)c1)N1CCOC(COCc2c(Cl)cccc2Cl)C1 (stereo unspecified)
  NPYLR7 ag = -7 | NPYLR7 ag max-min = -10
O=C(CN1CN(c2ccccc2)C2(CCN(C(=O)Nc3cc(C(F)(F)F)cc(C(F)(F)F)c3)CC2)C1=O)Nc1ccc(F)cc1
  NPYLR7 ag = 16 | NPYLR7 ag max-min = 16
N#CCCN1CCN(CN2C(=O)c3ccccc3C2=O)CC1
  NPYLR7 ag = 5 | NPYLR7 ag max-min = 3
CCN1CCN(c2c(Cl)cccc2NC(=O)Cn2cccnc2=O)CC1
  NPYLR7 ag = -2 | NPYLR7 ag max-min = -5
c1coc(-c2nc3ccccc3nc2-c2ccco2)c1
  NPYLR7 ag = -1&-2 | NPYLR7 ag max-min = 0&-1
Nc1ccc(C(=O)N2CCOC(c3ccc(Cl)c(Cl)c3)C2)cn1 (stereo unspecified)
  NPYLR7 ag = 3 | NPYLR7 ag max-min = 1

COCCCN1C(=O)C(=O)C(=C(O)c2ccc(OC)c(C)c2)C12C(=O)N(C)c1ccccc12 (stereo unspecified)
  NPYLR7 ag = -6 | NPYLR7 ag max-min = 3
COC1CCCN(C(=O)Cn2nnnc2CN2CCCC2)C1 (stereo unspecified)
  NPYLR7 ag = -5 | NPYLR7 ag max-min = -7
CC1(C(=O)N2CCCC(c3[nH]ncc3Cc3ccccc3)C2)CCNCC1 (stereo unspecified)
  NPYLR7 ag = 7 | NPYLR7 ag max-min = 5
COc1cccc(NC(=O)Cn2nc(-c3ccc(C)cc3C)c3sc(C)nc3c2=O)c1
  NPYLR7 ag = 3 | NPYLR7 ag max-min = 1
CC(C)c1cc(CN(C)C(=O)CC23CC4CC(CC(C4)C2)C3)no1
  NPYLR7 ag = 6 | NPYLR7 ag max-min = 4
O=C1CCCN1CC(=O)N1CCOC(c2ccc(Cl)c(Cl)c2)C1 (stereo unspecified)
  NPYLR7 ag = 4 | NPYLR7 ag max-min = 2
CCOC(=O)c1cn(CC)c2cc(F)c(OCC)cc2c1=O
  NPYLR7 ag = -1 | NPYLR7 ag max-min = -3
Nc1nc(=O)n([C@@H]2CS[C@H](CO)O2)cc1F
  NPYLR7 ag = -6 | NPYLR7 ag max-min = -9
Cn1cc(CCCNC(=O)NC2CCN(c3ccccc3)C2=O)cn1 (stereo unspecified)
  NPYLR7 ag = 7 | NPYLR7 ag max-min = 5
CCc1cccc2c(C(CC(=O)N3CCCC3)c3cccc(OC)c3)c[nH]c12 (stereo unspecified)
  NPYLR7 ag = -1 | NPYLR7 ag max-min = 9

Continued:
Second line of a record: NPYLR7 ag	NPYLR7 ag max-min
C=CCNc1nc(C(=O)OCC(=O)C23CC4CC(CC(C4)C2)C3)cs1
    0	-4
O=C(CC1CCCC1)NCCn1nc(-c2cccs2)ccc1=O
    0	-4
CS(=O)c1cccc(NC(=O)CCNC(=O)c2ccc(F)cc2F)c1 (stereo unspecified)
    1	1
Cc1csc(-c2coc3cc(O)cc(C)c3c2=O)n1
    -12	-14
N#CC(NC(=O)Cn1cccn1)c1ccc(OCc2ccccc2)cc1 (stereo unspecified)
    -5	-6
COc1cccc(CCN2CCC(C(=O)NC(c3cnccn3)c3ccccc3C)CC2)c1 (stereo unspecified)
    3	-7
COc1ccc(F)cc1CSC1CCCCNC1=O (stereo unspecified)
    1	12
COc1ccc(N2CCN(Cc3cc(=O)c(OC)cn3CC(=O)NC3CCCC3)CC2)cc1
    1	-2
Cc1ccc(N(CCCN2C(=O)c3cccc4cccc(c34)C2=O)C(=O)C23CC4CC(CC(C4)C2)C3)c(C)c1
    4	5
CN(C)CCN(Cc1ccc(C#N)cc1)Cn1ncc2ccccc2c1=O
    -11	-11
O=C(COn1nnc2ccc(C(F)(F)F)cc21)NC12CC3CC(CC(C3)C1)C2
    -1	-5
CCNC(=O)C(C1CCCC1)N1CCN(C(=O)c2ccc(OC)cc2OC)CC1 (stereo unspecified)
    15	20
CCCS(=O)(=O)c1c(S(=O)(=O)CCC)c2ccc(C(C)=O)cn2c1C(=O)OC
    1	-1
CC1CC1C(=O)Nc1cccc(S(=O)(=O)N2CCOCC2)c1 (stereo unspecified)
    1	15
Cc1cccc(NC(=O)CC(=O)NCCCn2ccnc2)c1C
    13	0
Cc1ccc(F)c(N2CCCC(NC(=O)NCC(C)CCO)C2)c1 (stereo unspecified)
    -2	-3
O=C(Cc1cccs1)OCc1cc(-c2cc3ccccc3o2)on1
    -1	-2
CC1CCC2(CC1)NC(=O)N(CC(=O)NC(=O)NC1CCCC1)C2=O (stereo unspecified)
    -1	-4
O=C(C1CC1c1ccc(F)c(F)c1)N1CC[C@@H](O)C1 (stereo partly specified)
    10	8
NS(=O)(=O)c1ccc(NSc2ccccc2[N+](=O)[O-])cc1
    3	3
CC1Oc2ccccc2C=C1/C=c1\sc2nc(=O)c(Cc3ccccc3)nn2c1=O (stereo unspecified)
    9	12
COCC(NS(=O)(=O)NCc1ccccc1)c1ccnn1C (stereo unspecified)
    2	1
CCOCCn1c(=O)c2c(nc3n2CC(C)CN3c2ccccc2)n(C)c1=O (stereo unspecified)
    -1	-4
N#CC1C(=N)Oc2cc(N)ccc2C1c1ccccc1I (stereo unspecified)
    26	16
O=C(c1ccc(-c2ccc(Oc3ccccc3)cc2)s1)N1CCc2ccccc2C1
    2	1
Cc1csc(SCC(=O)c2c(N)n(CC(C)C)c(=O)n(C)c2=O)n1
    0	-4
COc1ccc(CCNC(=O)C(C2CCCC2)N2CCN(C(=O)c3cccc(Br)c3)CC2)cc1 (stereo unspecified)
    -2	-1
CCCn1nccc1C(=O)N1C[C@H]2C[C@H](O)[C@H](O)C[C@H]2C1
    8	6
CCOC(=O)C1(CCOC)CCN(CCC(C)c2ccc(C)o2)CC1 (stereo unspecified)
    2	1
COCCN1C(=O)CC(N2CCC(c3nc4ccccc4o3)CC2)C1=O (stereo unspecified)
    -1	-2

Further structures
Second line of a record: NPYLR7 ag	NPYLR7 ag max-min
O=C(NCc1ccc(OCC2CC2)nc1)c1cccc2cn[nH]c12
    7	3
CN(CCc1ccccc1)C(=O)c1ccc(-n2cccc2)nc1
    2	9
O=C(Cc1ccc(Cl)cc1Cl)NCCN1C(=O)CCCC1=O
    3	-7
CC(C)(C)c1ccc(C(=O)NCCn2nc(-c3ccc(Cl)cc3)ccc2=O)cc1
    3	3
COc1ccc(OC)c(Nc2nc(Cl)nc(Nc3cc(OC)ccc3OC)n2)c1
    -2	-2
CN(C)CCNc1cc(C(C)(C)C)nc2c(-c3ccccc3Cl)cnn12
    3	13
COc1ccc(OCC(O)CN2C(=O)c3ccccc3S2(=O)=O)cc1 (stereo unspecified)
    -5	-6
CC1CCN(c2c(NCC3CCC(C(=O)NC4CCCC(C)C4C)CC3)c(=O)c2=O)CC1 (stereo unspecified)
    4	1
CN(C)c1ccc(-c2nc3cnccn3c2Nc2ccc3c(c2)OCCO3)cc1
    3	1
O=C(C=Cc1ccco1)Nc1c(Cl)cccc1Cl
    4	4
O=C1NC(c2cccnc2)(C2CCNCC2)C(=O)N1Cc1ccccc1F (stereo unspecified)
    0	-6
O=C(Nc1ccc(N2CCSCC2)c(Cl)c1)N1CCCC1
    8	7
COc1ccc(C(=O)Nc2ccnn2C2CCN(CCC(C)c3ccc(C)o3)CC2)cc1 (stereo unspecified)
    8	1
Cc1nc2cc(NNc3c(C)nn(-c4ccccc4)c3N)ccc2s1
    0&24	3&12
Cc1nn(-c2cccc(F)c2)c(N2CCN(C)CC2)c1CN(CCC(C)C)C(=O)c1cccc([N+](=O)[O-])c1
    -3	2
Cc1ccc(C(=O)NNC(=O)C2CC2)o1
    6	-3
CCOC(=O)CCNC(=O)N1CCC(Cc2nncn2C)CC1
    -8	-15
Brc1cc2c(cc1CSc1nnnn1C1CC1)OCO2
    0	2
Cc1ccc(-n2c(SCc3ccc(C(=O)NCc4ccncc4)cc3)nnc2-c2ccncc2)cc1
    17	23
COC(=O)c1ccc(-c2nc3cc([N+](=O)[O-])cc(Cl)c3o2)cc1
    14	14
C=C(C)CNc1nc(-c2ccc(OC)c(OC)c2)ncc1C(=O)OCC
    -5	-10

Five structures out of the list, arranged by formula weight, rising:
Second line of a record: NPYLR7 ag	NPYLR7 ag max-min
O=C(C=Cc1ccco1)Nc1c(Cl)cccc1Cl
    4	4
O=C(NCc1ccc(OCC2CC2)nc1)c1cccc2cn[nH]c12
    7	3
Cc1nc2cc(NNc3c(C)nn(-c4ccccc4)c3N)ccc2s1
    0&24	3&12
CC(C)(C)c1ccc(C(=O)NCCn2nc(-c3ccc(Cl)cc3)ccc2=O)cc1
    3	3
COc1ccc(C(=O)Nc2ccnn2C2CCN(CCC(C)c3ccc(C)o3)CC2)cc1 (stereo unspecified)
    8	1
